# Assay outcomes as filed in PubChem BioAssay.
# Rango release inh: inhibition of RanGTP-driven Rango-importin beta dissociation; AID 540253; Biochemical FRET Rango-importin beta, RanGTP-induced dissociation; O95149+P62826; Potency, µM (top dose mostly 46.1 µM), for inactives: at the top dose activity change, negative = inhibition; 0.071% of 340,000 active; active means falling FRET ratio curve, often poorly fitted, with flat reads before Ran was added; inconclusive means other falling curves, or compound fluorescence or quenching; inactive means flat or rising ratio curve;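 also: potency is read from the fitted curve at half-maximal effect; % of control where 0% means no effect; nearly all actives have a fitted effect of over 45% in size; -100% = wells without RanGTP and RCC1; the record marks most hits as doubtful in a second field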
#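 Compounds preincubate 5 min with complex of recombinant Rango and importin beta in PBS with 1 mM DTT. Ran (0.6 uM) loaded with 2 mM GTP plus 0.2 uM RCC1 starts dissociation; FRET is recorded 45 min later.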
# miR-21 FLuc: miR-21 reporter, rising signal; HeLa miR-21 FLuc reporter, luciferase, 48 h; Potency, µM (top dose mostly 38.3 µM), for the others: at the top dose reporter change, positive = more light; 340,000 tested, under 10 active; active = well fitted rising curve with a large enough effect; inconclusive = small, poorly fitted or top-dose-only effect; inactive = no such curve, though single readings can be large or run the other way;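 also: % of control where 0% means no effect; miR-21 action dims this reporter so a rising signal means less miR-21 action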
#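 Luminescence from a firefly luciferase reporter carrying a miR-21 binding site downstream, stably expressed under a CMV promoter in HeLa cells that make miR-21 endogenously, reports miRNA modulation after 48 h compound exposure up to approximately 40uM final.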
# GLA inh pH 4.5: blocks human alpha-galactosidase A at pH 4.5. P06280. purified enzyme, 4-MU-alpha-Gal fluorescence, pH 4.5. activity change, negative = inhibition, % at 105 µM. 230,000 tested, under 10 active; inconclusive = small, poorly fitted or top-dose-only inhibition, or a rising curve; inactive = flat fitted curve, though single readings scatter; no compound was filed as active;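 also: 0% = full activity with enzyme and -100% = basal without enzyme; dose as in the result columns while the protocol names 77 µM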
# Rango-impB inh: inhibitors of Rango-importin beta complex formation. Q14974. Rango CFP/YFP FRET sensor + importin beta, 45 min. Potency, µM (doses to about 92.2 µM), for the others: at the top dose inhibition of complex formation. AID 540263. 0.031% of 340,000 active; active = rising FRET ratio curve, often small or poorly fitted; inconclusive = mostly compound fluorescence or quenching in the first reads; inactive = flat curves in all reads;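 also: potency is read from the fitted curve at half-maximal effect; 0% = DMSO wells and 100% = buffer wells lacking importin beta; nearly all actives have a fitted effect of over 15% in size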
# Target sequence (Q14974 whole entry, looked up): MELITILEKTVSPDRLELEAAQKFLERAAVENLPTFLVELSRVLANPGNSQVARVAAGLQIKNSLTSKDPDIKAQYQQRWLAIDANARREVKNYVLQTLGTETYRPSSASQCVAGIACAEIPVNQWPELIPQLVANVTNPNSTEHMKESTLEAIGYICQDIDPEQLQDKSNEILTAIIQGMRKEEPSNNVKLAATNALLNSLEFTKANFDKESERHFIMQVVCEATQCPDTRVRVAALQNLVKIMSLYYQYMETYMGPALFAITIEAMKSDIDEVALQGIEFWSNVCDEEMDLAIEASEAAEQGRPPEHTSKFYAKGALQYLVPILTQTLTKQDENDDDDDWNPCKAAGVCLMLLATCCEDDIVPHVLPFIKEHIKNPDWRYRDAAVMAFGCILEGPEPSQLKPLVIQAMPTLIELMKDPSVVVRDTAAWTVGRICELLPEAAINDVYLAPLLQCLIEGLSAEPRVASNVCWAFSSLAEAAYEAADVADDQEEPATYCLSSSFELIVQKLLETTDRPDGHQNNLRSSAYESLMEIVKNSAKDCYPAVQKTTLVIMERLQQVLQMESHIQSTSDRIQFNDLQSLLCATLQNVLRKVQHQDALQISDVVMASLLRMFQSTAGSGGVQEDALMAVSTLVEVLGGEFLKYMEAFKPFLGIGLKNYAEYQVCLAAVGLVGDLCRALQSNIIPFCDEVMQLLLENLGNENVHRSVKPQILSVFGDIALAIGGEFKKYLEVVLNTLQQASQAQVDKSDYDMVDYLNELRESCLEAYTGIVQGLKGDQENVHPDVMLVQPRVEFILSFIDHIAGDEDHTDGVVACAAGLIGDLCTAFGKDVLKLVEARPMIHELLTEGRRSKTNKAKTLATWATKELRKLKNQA
#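 Inhibition scored from the CFP 486 nm/YFP 530 nm FRET ratio 45 min after adding 0.125 microM importin beta to 50 nM Rango biosensor preincubated 5 min with compound (room temperature, PBS with DTT, Tween-20, BSA). No-importin wells as positive control.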
# An asterisk follows results filed as active; ? = inconclusive; . = no result given. Not all compounds are listed. The share of hits here may be higher or lower than overall.
SMILES,Rango release inh,miR-21 FLuc,GLA inh pH 4.5,Rango-impB inh
Cc1ccc(/C(O)=C2/C(=O)C(=O)N(Cc3cccnc3)C2c2ccccn2)cc1 (stereo unspecified),-4%,-6%,-12,-5.5%
CC1CCN(C(=O)c2nc[nH]c2C(=O)N2CCc3ccccc3C2)CC1,-18%,.,.,?
COc1ccc(N2CCN(C(=O)CSc3ncccc3-c3nc4ccccc4[nH]3)CC2)cc1,-12%,-7%,-2,1.6%
O=C(c1ncc[nH]1)c1cccs1,5%,-30%,3,-5.9%
c1ccc(-c2noc(-c3cccnc3)n2)cc1,0%,-39%,4,1.5%
O=C(CCNS(=O)(=O)c1ccc(Br)s1)N1CCCCC1,3%,-13%,-9,2.6%
CC1CCCN(C(=O)COC(=O)c2ccc(=O)n(Cc3ccccc3)n2)C1 (stereo unspecified),1%,.,.,3.5%
CCN(CC)C(=O)CCc1nnc(Cc2cccc(C(F)(F)F)c2)o1,9%,0%,3,1.0%
CCOC(=O)C1CCCN(C(=O)Cc2ccc(Cl)cc2)C1 (stereo unspecified),-1%,-5%,-8,-4.9%
CN1/C(=C\C(=O)c2cncc(Br)c2)C(C)(C)c2ccccc21,?,22%,-12,?
CC(C)n1nc(C(=O)Oc2ccc(Cl)cc2)c2ccccc2c1=O,-9%,-1%,-3,1.3%
COc1nnc(-c2ccc(C)cc2)c2ccccc12,-19%,1%,.,-1.8%
CC(=O)Nc1c(-c2ccc3ccccc3c2)nc2ccccn12,-10%,-42%,.,2.9%
O=C(COC(=O)c1ccccn1)Nc1c(Cl)cccc1Cl,-20%,0%,3,1.2%
COc1ccccc1CC1S/C(=N/N=C/c2ccco2)NC1=O (stereo unspecified),-10%,0%,4,1.8%

# Two of these compounds, set out differently.
SMILES	Rango release inh	miR-21 FLuc	GLA inh pH 4.5	Rango-impB inh
COc1nnc(-c2ccc(C)cc2)c2ccccc12	-19%	1%	.	-1.8%
CC1CCN(C(=O)c2nc[nH]c2C(=O)N2CCc3ccccc3C2)CC1	-18%	.	.	?

# Some of these compounds in order of their number in Rango release inh, low to high.
mol	Rango release inh	miR-21 FLuc	GLA inh pH 4.5	Rango-impB inh
CC1CCN(C(=O)c2nc[nH]c2C(=O)N2CCc3ccccc3C2)CC1	-18%	.	.	?
CC1CCCN(C(=O)COC(=O)c2ccc(=O)n(Cc3ccccc3)n2)C1 (stereo unspecified)	1%	.	.	3.5%
O=C(c1ncc[nH]1)c1cccs1	5%	-30%	3	-5.9%

# (cont.)
SMILES,Rango release inh,miR-21 FLuc,GLA inh pH 4.5,Rango-impB inh
CC(=O)N1CCN(S(=O)(=O)c2cccc(C(=O)N(Cc3ccccc3)c3ccc(C)cc3)c2)CC1,0%,.,.,0.3%
CCOC(=O)c1c(C)[nH]c(C)c1C(=O)Cn1nnc(-c2ccccc2C)n1,15%,-5%,6,3.0%
COC(=O)C1=NN(C(C)=O)C2(CC(=O)N(c3cc(C)cc(C)c3)C2=O)C1 (stereo unspecified),10%,0%,-13,-2.0%
COc1cc(COCC(O)CN2CCN(CCN3C(=O)c4cccc5cccc(c45)C3=O)CC2)cc(OC)c1OC (stereo unspecified),-8%,14%,-1,-1.3%
O=C1C2C3CCCC3=C3CCCC3C2C(=O)N1c1ccc(Cl)cc1 (stereo unspecified),15%,-2%,-12,0.3%
CCN(C(=O)CCc1nnc2ccc(NCc3ccco3)nn12)c1ccccc1,-10%,-5%,.,-3.3%
Cc1nnc(SCC(=O)N2CCN(S(=O)(=O)c3ccc(Cl)cc3)CC2)n(N)c1=O,-3%,-9%,5,-1.5%
COc1ccc(-n2nc(C(=O)NCC(=O)N3CCCCC3)c3ccccc3c2=O)c(OC)c1,19%,-17%,.,1.4%
CC(=O)NCCc1ccc(S(=O)(=O)N2CCCC2)cc1,2%,0%,-1,-0.5%
CSCCC(NC(=O)c1ccccc1)C(=O)NNC(=O)c1csc(N2CCOCC2)n1 (stereo unspecified),-7%,-7%,.,-1.3%
Cc1ccc(N2CCN(S(=O)(=O)N3CCOCC3)CC2)cc1C,?,-2%,-7,0.2%
CCCC(C(=O)NC1CCCC1)N(C(=O)Cn1nnc(-c2ccc(C)o2)n1)c1cccc(O)c1 (stereo unspecified),-16%,5%,.,4.3%
Nc1nc(SCCOc2ccccc2)n[nH]1,0%,-17%,-7,1.0%
CC(C)C(=O)NC(c1cccs1)c1cc([N+](=O)[O-])c2cccnc2c1O (stereo unspecified),0%,1%,?,-4.9%
O=C(CSCC(=O)N1CCCCC1)Nc1nc(-c2ccccc2)c(-c2ccccc2)s1,-23%,16%,-1,-2.0%
O=C(COC(=O)C12CC3CC(CC(Cl)(C3)C1)C2)Nc1ccccc1,-8%,.,.,-2.0%
S=C(NCCc1ccccn1)Nc1ccc(Cl)cc1Cl,-4%,-20%,-19,-0.1%
O=C(CSc1nnc(CNC(=O)c2c(F)cccc2F)o1)Nc1ccc2c(c1)OCCO2,6%,2%,.,-0.1%
CC1(C)Cc2c(sc(NC(=O)c3ccc4ncsc4c3)c2C(N)=O)C(C)(C)N1,-13%,-43%,-9,?
COc1ccc(S(=O)(=O)NC2CCCCCC2)cc1C(N)=O,0%,-1%,.,0.0%
COc1ccc(NC(=O)CSc2nc(=O)n(CCN3CCOCC3)c3c2CCC3)c(OC)c1,9%,.,.,0.2%
COCC(C)n1c(C)cc(C(=O)Cn2c(=O)oc3ccccc32)c1C (stereo unspecified),-7%,-22%,-1,1.7%
Cc1ccc(/C=N/Nc2nc(N3CCOCC3)nc(N3CCOCC3)n2)o1,6%,-4%,3,?
CN(C(=O)c1cccc(NC(=O)C2CCCN(C(=O)OC(C)(C)C)C2)c1)C1CCCC1 (stereo unspecified),18%,.,.,-0.1%
CCOc1ccc(NC(=S)N2CCC(c3nc4ccccc4[nH]3)CC2)cc1,18%,4%,4,-1.1%
COc1ccccc1N1CCN(C2CCCCC2NS(=O)(=O)c2ccccc2)CC1 (stereo unspecified),8%,10%,.,-0.6%
CN(C)c1ccc2c(c1[N+](=O)[O-])Cc1ccccc1-2,-21%,.,.,-3.8%
COc1cccc(C2NC(=O)NC(C)=C2C(=O)OCC2CCCO2)c1 (stereo unspecified),17%,0%,2,0.8%
O=C(c1ccc2ncsc2c1)N1CCN(c2cccc(C(F)(F)F)c2)CC1,7%,.,.,0.4%
CC1(C)Cc2c(cnn2-c2ccc(F)cc2)C(NC(=O)CCc2ccncc2)C1 (stereo unspecified),-10%,-27%,.,-3.2%
CCCC(=O)C1=C(c2ccccc2)C(C#N)(C#N)C(C#N)=C1N,?,0%,-1,?
O=C(CSc1nnc(NC(=O)c2ccco2)s1)Nc1ccccc1Br,-12%,1%,.,-1.8%
CCC(=O)N1CCc2cc(Br)cc(S(=O)(=O)Nc3c(C)n(C)n(-c4ccccc4)c3=O)c21,.,1%,-3,.
CCc1nnc(N/N=C/c2c(Cl)cccc2Cl)n1N,-4%,-14%,-22,1.9%
Cc1ccc2nc(-c3ccccc3)cc(C(=O)NCCCn3ccnc3)c2c1,-3%,0%,-3,0.4%
Cn1c(=O)n(C)c2cc(NS(=O)(=O)c3ccccc3)ccc21,-8%,-6%,.,0.4%
N#CCC(=O)NN=C1CCCCCCCCCCC1,-13%,0%,-2,-1.0%
O=C(NN=C1c2ccccc2-c2ccccc21)c1ccccc1Br,6%,-3%,2,?
CC(C)C[C@H](NC(=O)C1CC(=O)N(c2ccc3c(c2)OCCO3)C1)C(=O)NC1CCCC1 (stereo partly specified),8%,-4%,.,12%
CC1Cc2ccccc2N1C(=O)COC(=O)c1ccc(Cl)nc1 (stereo unspecified),0%,-3%,-3,5.2%
Cc1ccsc1/C=N/Nc1ccc(Cl)nn1,-5%,-37%,5,-0.3%
CN(c1ccccc1)S(=O)(=O)c1ccc(C(=O)NCc2ccc(F)cc2)cc1,-11%,.,.,0.2%
Cc1cc(=O)oc2cc(OCC3CC(c4ccc(N(C)C)cc4)=NO3)ccc12 (stereo unspecified),-7%,-5%,9,0.3%
Cc1c(C(=O)N2CCCCC2)sc(N)c1C#N,0%,-2%,1,-0.2%
COc1ccc(CNCc2ccco2)cc1OCc1ccccc1,-3%,-34%,-4,0.2%
CSc1nc(-c2ccccc2)ccc1C(N)=O,-1%,-18%,-1,-2.1%
FC(F)(F)c1ccc(N=Cc2sc(N3CCOCC3)nc2-c2ccccc2)cc1,-17%,-8%,1,0.2%
O=C(N1CCN(Cc2ccccc2)CC1)C(Cl)(Cl)Cl,-11%,-7%,-8,2.6%
COCCNC(=S)N1CCN(S(=O)(=O)c2ccc(Cl)s2)CC1,4%,0%,.,-3.4%
CCCn1c(=N)n(CC(=O)c2ccc(Cl)c(Cl)c2)c2ccccc21,0%,-6%,.,-0.1%
CCC(C)(C)n1nnnc1C(c1ccccn1)N1CCN(c2cccc(OC)c2)CC1 (stereo unspecified),-14%,0%,2,-3.2%
CC1CN(C2CCN(S(=O)(=O)c3ccc(F)cc3)CC2)CC(C)O1 (stereo unspecified),6%,0%,2,0.4%
Cc1c(/C(O)=C2\C(=O)C(=O)N(CCN(C)C)C2c2cccnc2)cnn1-c1ccccc1 (stereo unspecified),?,-3%,-4,0.4%
CC1(NC(=O)Nc2cccc3ccccc23)CCS(=O)(=O)C1 (stereo unspecified),-1%,2%,.,-3.6%
Cc1ccc(S(=O)(=O)N(Cc2cc3ccccc3[nH]c2=O)c2cccc(C)c2)cc1,1%,-5%,-2,1.0%
CCOC(=O)CSc1cc(=O)n(C)c2cc(Cl)ccc12,-2%,1%,-2,6.2%
CN(C)c1ccc(-c2cccc(C3CC=CC4C3C(=O)N(Cc3ccccc3)C4c3ccc(C(F)(F)F)cc3)c2)cc1 (stereo unspecified),-5%,-3%,2,-2.1%
COc1ccc(CCNC(=O)C2CCCN2C(=O)Nc2ccc(Cl)cc2)cc1OC (stereo unspecified),-13%,7%,.,1.3%
O=C(O)c1c[nH]c2ccc(F)cc2c1=O,-4%,1%,-2,-0.1%
COC(=O)C(CC(C)C)NC(=O)/C=C/c1ccc(Cl)cc1 (stereo unspecified),-7%,-1%,-1,-0.5%

# Next part:
SMILES,Rango release inh,miR-21 FLuc,GLA inh pH 4.5,Rango-impB inh
COc1cc2[nH]c(=O)n(CCC(=O)NC3CCN(Cc4ccccc4)CC3)c(=O)c2cc1OC,-2%,-2%,9,-1.6%
CS(=O)(=O)N1CCCC(C(=O)NC2CCCCCCC2)C1 (stereo unspecified),5%,-4%,3,-0.6%
CCCNc1c(NC(=O)c2ccc3c(c2)OCO3)c(=O)oc2ccccc12,-5%,0%,.,3.3%
CC1=NN(Cc2ccccc2)C(=O)C1,0%,-3%,9,-3.3%
Cc1ccc(NC(=O)c2ccc(NCCCN3CCOCC3)c([N+](=O)[O-])c2)cc1Cl,-2%,6%,-9,-3.9%
O=S(=O)(c1cc(Cl)ccc1Cl)N1CCN(Cc2ccc3c(c2)OCO3)CC1,-19%,-7%,-9,-0.4%
O=C(CCSc1ccc(Cl)cc1)N1CCN(c2ncccn2)CC1,-9%,-48%,5,-0.8%
c1csc(-c2nc(N3CCOCC3)c3ccccc3n2)c1,-2%,7%,.,-2.5%
C=C(C)COc1ccc(-c2nc(N)ncc2Oc2ccccc2OCC)c(O)c1,-9%,0%,-16,0.3%
CN1CCN(c2ccc(S(=O)(=O)N3CCOCC3)cc2NC(=O)COc2ccc(C#N)cc2)CC1,-6%,.,.,0.8%
C=CCNC(=O)c1ccc(N(CC=C)S(C)(=O)=O)cc1,-12%,1%,-3,2.5%
O=C(CCCOc1ccc(Cl)cc1Cl)Nc1nnc(C2CC2)s1,-4%,-4%,.,0.2%
O=C(O)CSc1nnnn1-c1ccc2c(c1)OCCO2,-3%,-1%,8,5.5%

# Two of the compounds above, with the structure last:
Rango release inh | miR-21 FLuc | GLA inh pH 4.5 | Rango-impB inh | compound
-9% | 0% | -16 | 0.3% | C=C(C)COc1ccc(-c2nc(N)ncc2Oc2ccccc2OCC)c(O)c1
-6% | . | . | 0.8% | CN1CCN(c2ccc(S(=O)(=O)N3CCOCC3)cc2NC(=O)COc2ccc(C#N)cc2)CC1
